Ecoli rRNA inh = reduced GFP signal of wild-type E. coli, primary screen, bacterial rRNA inhibitor project, GFP/RFP fluorescence, OD600, single point; E. coli WT GFP vs humanized-ribosome RFP mutants, 24 h; active compounds read low; DMSO median 0, no signal -100; GFP signal change (wild-type ribosome), % (test concentration not listed); AID 720706, 2013; actives 1.6% (n = 350,000);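 active means significant combined selectivity score with lowered wild-type GFP, culture density cut under 30%, mutant RFP and density less affected; inactive means any of these conditions unmet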; further: one replicate is shown; some compounds called inactive have numbers as strong as hits
Beta cell apopt = inhibitors of cytokine-induced beta cell apoptosis, primary screen, luminescence. INS-1E cytokine-induced death, ATP luminescence, 48 h; percent of positive-control rescue, neutral wells zero. protection from apoptosis, % (test concentration not listed). actives 0.8% (n = 300,000). AID 435005, 2010;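 active means all replicates at 75% or more, or half of them and the mean; inconclusive means half reach 75% but not the mean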;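 further: 0% = cytokine-treated negative control wells and 100% = positive control rescue; higher means more ATP so stronger rescue from cytokine killing; wells of about 40 µL received 100 nL stock; the first replicate is given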
ALR inh = inhibitors of human ALR sulfhydryl oxidase, primary screen, biochemical, H2O2 detection, HRP-luminol luminescence, single point; purified ALR, DTT oxidation; AID 485317, 2010; FAD-linked sulfhydryl oxidase ALR (Homo sapiens), P55789; actives 3.8% (n = 290,000); inhibition, % (no concentration beside the values);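 active means mean and each replicate at 75% or more; inconclusive means only one of the two met; inactive means neither met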;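 further: stock transfer was 7.5 nL into about 7.5 µL; 0% = neutral wells and 100% = wells with inactivated enzyme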
Beta2AR agonist = beta2AR agonists driving receptor internalization, primary screen, cell-based, FAP fluorogen, flow cytometry; Beta-2 adrenergic receptor (Homo sapiens), P07550; Am2.2-beta2AR cells; reference of the scale not given here; response, % (test concentration not listed); actives 0.43% (n = 340,000);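 active means response above a set limit, near 3 SD of response in nonfluorescent compounds, cut at about 42% in these data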;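 further: stock transfer was 100 nL into about 11 µL; a reference agonist was the positive control; negative values mostly stem from fluorescent compounds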
T cruzi inh = inhibitors of intracellular T. cruzi growth, primary screen, luminescence, NIH3T3 host cells | actives 1.4% (n = 300,000) | inhibition, % (test concentration not listed) | T. cruzi beta-gal in NIH3T3, 90 h;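 active means mean inhibition across valid replicates above about 55%, limit read from the data; inconclusive means mean below that limit but half or more replicates reach it; inactive means mean below it, under half of replicates reach it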;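 further: signal also drops with host cell toxicity which is not excluded here; 0% = plate median of DMSO wells and 100% = zero luminescence signal; higher percent means less beta-gal luminescence so fewer parasites; stock transfer was 50 nL into about 50 µL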
LANA-H2B inh = blockers of LANA interaction with H2A/H2B – biochemical, FP readout, HTS, primary screen; cell-free LANA-H2A/H2B peptide, fluorescence polarization; inhibition, % (concentration not given with the values); actives 0.6% (n = 320,000); in the data active means inhibition mostly above about 10%, no sharp cut-off; inactive means mostly below about 6.7%;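 further: stock transfer was 7.5 nL into about 10 µL; 0% = median of vehicle wells and 100% = median of positive control wells; one replicate is shown; the record names a cut of 25% in any replicate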
Target sequence (Q9QR71 whole entry, looked up): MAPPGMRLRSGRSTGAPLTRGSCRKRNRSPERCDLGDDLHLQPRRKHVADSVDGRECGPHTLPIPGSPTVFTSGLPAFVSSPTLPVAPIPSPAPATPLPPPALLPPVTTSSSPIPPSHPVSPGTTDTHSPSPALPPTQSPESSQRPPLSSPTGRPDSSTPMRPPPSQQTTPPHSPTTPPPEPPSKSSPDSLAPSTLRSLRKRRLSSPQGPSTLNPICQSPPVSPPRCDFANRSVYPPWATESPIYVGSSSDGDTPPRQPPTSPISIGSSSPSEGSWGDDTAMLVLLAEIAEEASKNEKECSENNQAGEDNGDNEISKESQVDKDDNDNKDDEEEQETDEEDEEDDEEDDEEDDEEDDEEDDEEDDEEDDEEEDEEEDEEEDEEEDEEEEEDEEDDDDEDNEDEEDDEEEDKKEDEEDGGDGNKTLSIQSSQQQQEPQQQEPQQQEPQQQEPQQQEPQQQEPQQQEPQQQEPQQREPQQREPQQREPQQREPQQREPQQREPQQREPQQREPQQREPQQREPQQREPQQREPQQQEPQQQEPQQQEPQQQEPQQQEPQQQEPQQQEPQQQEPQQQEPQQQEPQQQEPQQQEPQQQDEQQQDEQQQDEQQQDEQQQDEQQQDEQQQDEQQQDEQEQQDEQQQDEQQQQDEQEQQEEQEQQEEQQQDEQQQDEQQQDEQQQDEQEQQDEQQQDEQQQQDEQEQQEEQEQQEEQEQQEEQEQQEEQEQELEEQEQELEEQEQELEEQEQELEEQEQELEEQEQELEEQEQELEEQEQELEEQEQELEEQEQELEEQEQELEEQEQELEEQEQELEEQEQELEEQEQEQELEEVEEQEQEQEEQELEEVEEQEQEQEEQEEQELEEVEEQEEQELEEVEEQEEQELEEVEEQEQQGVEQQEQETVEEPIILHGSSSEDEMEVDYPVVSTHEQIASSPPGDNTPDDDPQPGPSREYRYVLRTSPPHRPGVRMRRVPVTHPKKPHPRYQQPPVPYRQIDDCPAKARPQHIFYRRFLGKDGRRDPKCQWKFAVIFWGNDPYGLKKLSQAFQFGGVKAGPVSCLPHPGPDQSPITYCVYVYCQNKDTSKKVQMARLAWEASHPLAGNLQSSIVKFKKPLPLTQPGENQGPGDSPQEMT
Calb FLC = C. albicans growth inhibition with fluconazole, primary screen, CaCi-2 strain, Alamar Blue fluorescence | C. albicans CaCi-2 (fluconazole-resistant clinical isolate) + fluconazole, 48 h | growth inhibition, % (test concentration not listed) | actives 0.57% (n = 300,000) | AID 1979, 2009;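 active means most replicates above 75%; inconclusive means exactly half above 75%; inactive means most below 75%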;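 further: all wells also contain fluconazole at 8 µg/ml as a sub-toxic cotreatment; 0% = median of DMSO wells and 100% = median of geldanamycin control wells; wells of about 8 µL received 7.5 nL stock; the first replicate is given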
Bfl-1 A1 inh = caspase 3/7 activation in MEF A1-2A-BIM cells, primary screen, A1 inhibitor project, cell-based, luminescence, HTS. actives 0.066% (n = 330,000). caspase activation, % (concentration not given with the values). Caspase-Glo 3/7 luminescence, 3 h; percent of clofoctol response, vehicle zero. AID 2462, 2010;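 active means over half of replicate activation scores above 10%, or exactly half above 10 with the replicate mean above 10; inconclusive means replicate mean below 10 yet half the replicates above 10; inactive means over half of replicates below 10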;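 further: wells of about 30 µL received 50 nL stock; many hits fall short of the cut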
Ecoli rRNA inh OD600 = second read-out of Ecoli rRNA inh, no call of its own (marks repeat the call); OD600 change, %; measured here: OD600 growth;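 optical density of the mix in the first replicate; 0 = DMSO median and -100 = no signal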
Ecoli rRNA inh RFP = recorded beside Ecoli rRNA inh, whose call it bears; RFP signal change, %; measured here: RFP humanized mutant strains;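 first replicate; 0 = DMSO median and -100 = no signal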
* hit, by the source's call; ? = inconclusive; / = not tested or not shown. Only part of the results is shown; rates above refer to the full screens.

Structure	Ecoli rRNA inh	Ecoli rRNA inh OD600	Ecoli rRNA inh RFP	Beta cell apopt	ALR inh	Beta2AR agonist	T cruzi inh	LANA-H2B inh	Calb FLC	Bfl-1 A1 inh
COc1ccc(-n2nc3c(c2NC(=O)c2ccc(N4C(=O)CCC4=O)cc2)CSC3)cc1	8	10	0.4	-1	2	-5	1	0.6	6	-0.2
O=C(CC1CCCC1)N1CCCC(Nc2ccc(F)cc2)C1 (centres undefined)	-3	0	-1.7	/	99*	-6	2	-8.5	1	-0.2
CC(=O)Nc1ccc(C(=O)Nc2ccc(S(=O)(=O)Nc3nccc(C)n3)cc2)cc1	6	6	-4.0	/	1	-6	-9	4.9	-1	0.2
Brc1cccc(CNn2cnnc2)c1	8	0	-3.2	-4	-61	5	/	8.1	-18	1.5
CC(C)n1c(O)c(N=NC(=O)CNC(=O)c2cccnc2)c2ccccc21	-5	2	0.3	-15	-3	2	-3	2.1	-2	-0.2
COc1cccc(C2=CC(=O)C[C@H](c3ccc(Cl)cc3)C2)c1OC	-22	-32	-3.1	4	-5	-1	/	3.0	/	-0.3
CC(C)NC(=O)COC(=O)Cn1[nH]c(=O)c2ccccc2c1=O	22	20	0.6	-1	8	3	-6	-0.1	-24	1.6
CC(C)Nc1nnc(SCC(=O)NCc2ccc3c(c2)OCO3)s1	11	6	1.9	4	-27	-3	8	-1.1	-1	0.0
COc1ccc(C)cc1NC(=O)CNc1ccccc1CN(C)C1CCCCC1	-20	-27	-7.3	15	-9	2	32	-0.7	-22	0.7
CCN1CCN(c2c(Cl)cccc2NC(=O)c2ccc3nsnc3c2)CC1	13	7	2.2	/	/	-5	26	-9.4	-13	-0.1
O=[N+]([O-])c1cc(C(F)(F)F)ccc1N1CCCNCC1	-1	6	0.4	-14	11	-1	31	1.4	-2	0.3
S=c1[nH]c(-c2ccccc2)cs1	-10	-4	0.1	-6	14	7	0	-13	0	0.1
CC(C)CCN1CCN(Cc2ccc(C(F)(F)F)cc2)CC1CCO (centres undefined)	15	22	1.4	2	-9	-9	19	1.6	-7	0.1
CN(CC(=O)Nc1ccc(Cl)c(C(F)(F)F)c1)C(=O)c1cccnc1Sc1ccccc1	-35	-64	7.6	-5	-6	7	-2	-3.9	5	?
COc1cc(/C=C(\C#N)C(=O)Nc2cccc3ncccc23)ccc1O	/	/	/	3	-9	/	1	2.1	37	-0.1
N/C(=N\c1nc2c(c(=O)[nH]1)CCCC2)Nc1ccc(Oc2ccccc2)cc1	-1	3	-4.1	9	-3	-23	16	10	2	-0.1
CN(C(=O)c1ccc(Br)cc1)C1CCS(=O)(=O)C1 (centres undefined)	1	7	-1.2	-3	-2	-11	0	2.8	0	0.8
Cc1cc(OC(=O)c2cc(Cl)ccc2Cl)c([N+](=O)[O-])c(=O)[nH]1	-18	-13	-5.1	1	-4	8	-9	-2.9	5	0.7
CN1CCC(=NNC(=O)CN(c2cccc([N+](=O)[O-])c2)S(=O)(=O)c2ccccc2)CC1	-4	6	-2.9	3	/	-4	-2	1.9	-5	1.0
CC(C)(C)OC(=O)N1CCCC1C(=O)NCCc1ccccc1 (centres undefined)	/	/	/	-5	-1	55*	-10	1.9	1	-0.4
CC(C)c1ccc(/C=C/C(=O)NC2CCCCC2)cc1	12	1	1.4	0	-2	5	30	0.6	-1	-0.4
CN(CC(=O)Nc1ccc(F)cc1)C(=O)COC(=O)c1ccccc1	3	10	-1.2	-2	9	-5	-10	14	2	1.3
Clc1ccc(-c2cc3ccccc3nc2N2CCOCC2)cc1	-19	-36	-8.1	/	-1	-1	34	1.8	-45	1.6
O=S(=O)(NCC(c1cccnc1)N1CCN(Cc2ccccc2)CC1)c1ccc(F)cc1 (centres undefined)	13	12	1.3	2	-6	4	47	2.5	0	0.2
Cn1c(SCC(=O)O)nnc1-c1ccc2ncccc2c1	5	10	-0.3	-1	/	/	6	0.6	-1	0.4
CC(NC(=O)CNC(=O)c1ccco1)c1ccccc1 (centres undefined)	7	18	1.1	1	/	1	12	6.8	-3	0.3
O=C(C1=NNCC1c1ccc(Cl)cc1)C1CO1 (centres undefined)	-16	-36	-2.4	/	/	3	-11	/	47	/
S=c1[nH]cnc2scc(-c3ccc(Cl)cc3)c12	-51*	-23*	-16*	12	10	-1	41	3.3	1	0.2
CCOC(=O)c1cn(CC)c2c(ccc3ccccc32)c1=O	-20	-15	-2.2	-1	-3	3	7	0.6	-1	-1.4
Cc1cc(C(=O)O)c(S(C)(=O)=O)s1	/	/	/	5	-8	3	-3	-0.6	-11	1.4
CC(C)(C)c1ccc(OCC(=O)NCc2ccco2)cc1	/	/	/	/	-2	-7	-14	1.4	1	0.6
C=CCOc1ccc(/C=C/C(=O)OCC(=O)N(C)C2CCS(=O)(=O)C2)cc1 (centres undefined)	8	7	0.3	4	-11	1	1	3.9	-5	0.1
CN(c1ncc(C(F)(F)F)cc1Cl)N1C(=O)c2cccc(N)c2C1=O	11	9	-1.4	-5	0	0	3	1.6	1	-0.5
CC1(C)Cc2nc(N3CCCC3)c(C#N)cc2CO1	-5	-4	0.9	-1	23	1	8	-3.3	10	-0.4
CCOC(=O)C1=C(CS(=O)(=O)c2ccccc2)NC(=O)NC1c1ccccc1 (centres undefined)	/	/	/	6	1	-10	-11	-2.5	7	-0.3
CCN(C(=O)CN1C(=O)CN(C)C1=O)c1cccc2ccccc12	0	4	-5.1	3	-19	-3	/	-0.1	/	-1.7
O=C(Cc1ccc(S(=O)(=O)N2CCOCC2)s1)Nc1ccccc1N1CCCC1	1	1	0.9	/	-30	-5	-7	1.3	-3	0.2
COc1ccc(C)cc1NC(=O)CN1CCN(S(=O)(=O)c2ccc3ccccc3c2)CC1	15	16	3.5	-2	-3	5	/	4.8	/	0.3
O=C(CN1C(=O)CCSc2ccccc21)Nc1ccc(F)cc1	/	/	/	1	-6	-4	-4	-0.3	11	-0.3
Cc1ccc(N/C=C(\C2OC(=O)c3ccccc32)[N+](=O)[O-])c(C)c1 (centres undefined)	6	9	0.0	-19	0	-7	-1	4.7	-5	0.7
O=C1CSC(c2cccnc2)N1C1CCCCC1 (centres undefined)	/	/	/	-5	1	2	-12	-5.5	21	-0.7
CCNC(=S)Nc1ccc2cn[nH]c2c1	/	/	/	-6	-5	-6	11	-4.8	23	-0.1
CCS(=O)(=O)Nc1ccc(-c2nnc(SCC(=O)c3ccc(NC(C)=O)c(OC)c3)o2)cc1	/	/	/	4	1	1	4	3.2	-3	0.0
CCn1c(SCC(=O)NCc2ccccc2)nc2ccccc2c1=O	4	-2	0.4	-4	-4	-8	-3	1.7	-22	0.1
Cc1ncc(CN2CCCC(CCC(=O)NCc3ccccc3F)C2)s1 (centres undefined)	10	6	1.3	-10	-9	-1	61*	-2.3	-2	-0.9
CCOC(=O)c1ccc(N2CN=C3SCC(=O)N3C2)cc1	/	/	/	-2	-11	-1	0	-0.8	0	-0.2
O=C1ON=C(c2ccccc2)/C1=C\c1ccco1	15	5	15	-6	/	0	-7	-1.4	8	0.7
CCOC(=O)c1sc(NC(=O)Nc2cccc(Cl)c2)cc1C	-52	-80	-23	101*	-3	6	52	4.9	-10	-0.4
Cc1cc(OCC(O)CN2CCN(c3ccccn3)CC2)cc(C)c1Cl (centres undefined)	-48	-67	-11	-2	-36	-16	14	0.7	-5	-0.7
CC1CC(C)CN(C(=O)c2ccc3nc[nH]c3c2)C1 (centres undefined)	1	9	-2.2	/	13	-4	18	-3.1	-6	-0.1
O=C(CSc1nc2cccnc2n1Cc1ccccc1)N1CCCC1	/	/	/	-5	/	-17	0	4.4	5	0.3
COC(=O)c1cc(S(=O)(=O)N2CCCCCC2)cn1C	8	11	1.8	0	1	1	-6	-0.1	7	-0.2
c1ccc(Nc2c(-c3ccco3)nc3ccccn23)cc1	/	/	/	-3	98*	-12	-6	4.0	-9	0.5
O=S(=O)(Nc1ccc(N2CCOCC2)cc1)c1cc(Cl)ccc1Cl	-4	-11	3.7	-1	/	6	-6	1.0	9	-1.2
NC(=O)c1ccc(CN2CCC(Cc3ccccc3)CC2)cc1	21	10	1.2	-12	-40	-3	18	-1.5	-5	0.7
CCCOC(=O)c1ccc(Nc2nc(C)cc(=O)[nH]2)cc1	/	/	/	-1	3	11	-1	2.3	-5	1.0
CSC1=NC(C)(C)CC2(C)Nc3ccccc3N12 (centres undefined)	16	10	-0.1	2	-11	6	6	3.7	36	-0.3
CCOC(=O)N1CCC(N(CCN(C)C)C(=S)Nc2cccc(SC)c2)CC1	5	0	4.5	-4	-2	1	-4	-2.4	4	-0.4
O=C(Nc1nc2ccccc2s1)NC1CCCCC1	-9	-4	-0.3	-3	34	-9	27	-3.4	-9	1.4
CCN(CC)CCNC(=O)CSc1c2c(nc3cc(Cl)ccc13)CCCC2	-25	-34	5.7	-1	10	8	33	-3.8	-5	0.5

More compounds follow.
Structure	Ecoli rRNA inh	Ecoli rRNA inh OD600	Ecoli rRNA inh RFP	Beta cell apopt	ALR inh	Beta2AR agonist	T cruzi inh	LANA-H2B inh	Calb FLC	Bfl-1 A1 inh
Cc1cc(C)nc(SCc2ccc(Br)cc2)n1	1	-7	-12	0	1	-14	10	3.4	-1	0.1
CN(/C(=N/S(=O)(=O)c1cccs1)c1ccccc1)c1ccc(O)cc1	2	0	0.3	-2	/	6	/	2.6	117*	0.7
Cn1c(=O)c2c(nc(CN3CCCCC3)n2Cc2c(F)cccc2Cl)n(C)c1=O	7	11	-0.9	-2	7	-6	/	11	/	-0.7
Clc1ccc(-c2nc(N3CCOCC3)nc3ccccc23)cc1	6	8	-2.7	/	1	7	14	5.7	2	0.6
Cc1nc2cc(F)ccc2n1C1CCN(C(=O)c2c(F)cccc2F)CC1	-4	6	1.0	-1	-5	-1	5	0.7	3	-0.2

Two compounds from above, limited to Ecoli rRNA inh and Bfl-1 A1 inh:
Compound | Ecoli rRNA inh | Bfl-1 A1 inh
C=CCOc1ccc(/C=C/C(=O)OCC(=O)N(C)C2CCS(=O)(=O)C2)cc1 (centres undefined) | 8 | 0.1
CN(c1ncc(C(F)(F)F)cc1Cl)N1C(=O)c2cccc(N)c2C1=O | 11 | -0.5

From PubChem
